Sa helicase inh: blocks Staphylococcus aureus DNA helicase; purified S. aureus helicase, fluorescence unwinding assay; about half of the hits fall short of the stated cut; inhibition, %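 (tested at about 80 µM)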; 120,000 tested, 0.05% active; AID 485395;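 active = both duplicates at 50% or more, or one of them with a favoured structure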;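 also: 0% = mean of negative control wells and 100% = mean of positive control wells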
MgrA DNA FP: alters Staphylococcus aureus MgrA binding to DNA. fluorescence polarization. inhibition, %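 (about 10 µg/mL by stock and volumes)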. 84,000 tested, 0.13% active. AID 602314;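 active = above 50% in either of two replicates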;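 also: 0% = protein plus DNA without compound and 100% = DNA alone without protein; higher means less MgrA bound to DNA so lower polarization; one replicate is shown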
The depositor's hits bear a star; . = not tested or not shown; & = joins results of further samples. Some of the compounds tested. The share of hits here may be higher or lower than overall.

A first look, 2 compounds:
smiles | Sa helicase inh | MgrA DNA FP
Nc1c2ccccc2nc2ccccc12 | . | 3.7
CCc1cccc(CC)c1NC(=O)CN(CC(=O)O)CC(=O)O | . | 9.6

This part in full, repeating the preview:
smiles | Sa helicase inh | MgrA DNA FP
Nc1c2ccccc2nc2ccccc12 | . | 3.7
CCc1cccc(CC)c1NC(=O)CN(CC(=O)O)CC(=O)O | . | 9.6
CC(C)n1c(SCC(=O)Nc2ccccc2)nc2ccccc2c1=O | -5 | .
CC(C)NNC(=O)c1ccncc1 | . | 3.2&-2.5
CCN(CCCCOC(=O)c1ccc(OC)c(OC)c1)C(C)Cc1ccc(OC)cc1 (centres undefined) | . | -1.1&2.6
CN(CC1COc2ccccc2O1)c1ccc(S(=O)(=O)N2CCOCC2)cn1 (centres undefined) | -12 | .
O=C(O)c1cc(=O)c2ccccc2o1 | . | 1.9
CCn1ccc(C(=O)Nc2ccccc2C(=O)OC)n1 | 30 | .
CC(Cc1cccc(C(F)(F)F)c1)NCCOC(=O)c1ccccc1 (centres undefined) | . | -0.3&2.8
O=C(CN1C(=O)c2ccccc2C1=O)Nc1nnc(-c2ccc3c(c2)OCCO3)o1 | 2 | .
COC(=O)c1ccccc1O | 2 | -1.8
CN[C@@H]1[C@H](O)[C@H](NC)[C@H]2O[C@@]3(O)C(=O)C[C@@H](C)O[C@H]3O[C@@H]2[C@H]1O | . | 9.2&1.9
CCCOc1ccc(C(=O)OCCN(CC)CC)cc1N | . | 2.5
Cc1scc2c1N(C(=O)CN1CCN(C)CC1)c1ccccc1NC2=O | . | -6.8&-7.2
CCCOc1ccc2nc(NC(=O)OC)[nH]c2c1 | . | 2.9
COCCNC(=O)c1ccc2c(c1)nc(C)n2-c1ccc(Br)cc1 | 21 | .
N=c1nc(N2CCCCC2)cc(N)n1O | . | 2.5&3.1&4.3
O=C(NC1CCN(CCc2c[nH]c3ccccc23)CC1)c1ccccc1 | . | -0.5
Cc1ccccc1OCC(O)CO (centres undefined) | . | 3.0&0.3
COc1ccc(C(=O)c2ccccc2)c(O)c1 | . | 2.0&1.3
Cc1ccc(Nc2nc(N)nc(CN3CCC(C(N)=O)CC3)n2)cc1 | 2 | -3.3
CC(=O)OCC(=O)[C@@]1(O)CC[C@H]2[C@@H]3CCC4=CC(=O)C=C[C@]4(C)[C@@]3(F)[C@@H](O)C[C@@]21C | . | 5.1
CC(=O)N[C@@H](Cc1ccccc1)C(=O)O | . | -2.2
CCn1c(C(=O)N2CCCC(C(=O)N3CCc4ccccc4C3)C2)cc2sccc21 (centres undefined) | 11 | .
c1ccc(-n2cnnn2)cc1 | -2 | 3.4
OCC1CN(Cc2ccccc2)C(c2ccccc2)O1 (centres undefined) | . | -3.2
CCCCN(CCCC)CCCOC(=O)c1ccc(N)cc1 | . | 0.4&1.2
O=C1c2c(O)ccc(O)c2C(=O)c2c(NCCNCCO)ccc(NCCNCCO)c21 | . | 47*
COc1cc(C2Oc3cc(C4Oc5cc(O)cc(O)c5C(=O)C4O)ccc3OC2CO)ccc1O (centres undefined) | 0 | .
CCn1cc(C(=O)O)c(=O)c2cc(F)c(N3CCNC(C)C3)c(F)c21 (centres undefined) | . | 0.2&0.8

Record cards, from the list above:
O=C(CN1C(=O)c2ccccc2C1=O)Nc1nnc(-c2ccc3c(c2)OCCO3)o1 is listed with Sa helicase inh: 2; MgrA DNA FP: .
c1ccc(-n2cnnn2)cc1 is listed with Sa helicase inh: -2; MgrA DNA FP: 3.4
CC(=O)N[C@@H](Cc1ccccc1)C(=O)O is listed with Sa helicase inh: .; MgrA DNA FP: -2.2

Additional records:
smiles | Sa helicase inh | MgrA DNA FP
CC[C@]12CCCN3CCc4c(n(c5ccccc45)[C@](O)(C(=O)OC)C1)[C@@H]32 | . | 1.3&1.2
CCCCCCCCCCCCCCC[C@@H](O)[C@@H](N)CO | . | 3.0
CC(C)(C)NCC(O)COc1cccc2c1C[C@H](O)[C@H](O)C2 (some centres undefined) | . | 1.1&2.5
COC(=O)N/N=C/c1c[n+]([O-])c2ccccc2[n+]1[O-] | . | 6.7
CCCCOc1cc(C(=O)OCCN(CC)CC)ccc1N | . | 1.9
CC1O[C@@H](O[C@@H]2C(CO)O[C@@H](OCC3O[C@@H](OC(=O)C45CC[C@@H](C)[C@H](C)[C@H]4C4=CC[C@@H]6[C@@]7(C)C[C@@H](O)[C@H](O)[C@@](C)(CO)C7CC[C@@]6(C)[C@]4(C)CC5)C(O)[C@H](O)[C@@H]3O)C(O)[C@@H]2O)C(O)[C@@H](O)[C@H]1O (some centres undefined) | . | 2.1
O=C(O)C1Cc2ccccc2CN1 (centres undefined) | 10 | .
Cc1cc(=O)oc2cc(O)ccc12 | . | 0.8&5.1
CCCCC(=O)O[C@]1(C(=O)CO)[C@@H](C)CC2C3CCC4=CC(=O)C=C[C@]4(C)[C@@]3(F)C(O)C[C@@]21C (some centres undefined) | . | 0.8
CC(=O)Oc1ccc2c(C)cc(=O)oc2c1 | 3 | .
C[C@@H]1C[C@H]2[C@@H]3CCC4=CC(=O)C=C[C@]4(C)[C@@]3(Cl)[C@@H](O)C[C@]2(C)[C@@]1(OC(=O)c1ccco1)C(=O)CCl | . | 1.3
CC(C)(C)NCC(O)COc1cccc2c1CC(O)C(O)C2 (centres undefined) | -7 | .

Random excerpt: three entries already listed.
smiles | Sa helicase inh | MgrA DNA FP
CCCCOc1cc(C(=O)OCCN(CC)CC)ccc1N | . | 1.9
Cc1cc(=O)oc2cc(O)ccc12 | . | 0.8&5.1
CC(=O)Oc1ccc2c(C)cc(=O)oc2c1 | 3 | .
